GLA inh pH 4.5 = alpha-galactosidase A (human) inhibition, pH 4.5 | purified enzyme, 4-MU-alpha-Gal fluorescence, pH 4.5 | activity change, negative = inhibition, % at 105 µM | 230,000 tested, under 10 active | AID 1467 | P06280; inconclusive = small, poorly fitted or top-dose-only inhibition, or a rising curve; inactive = flat fitted curve, though single readings scatter; no compound was filed as active;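 also: 0% = full activity with enzyme and -100% = basal without enzyme; dose as in the result columns while the protocol names 77 µM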
miR-21 FLuc = raises the signal of a miR-21 reporter; HeLa miR-21 FLuc reporter, luciferase, 48 h; Potency, µM (titrated, usually from 38.3 µM), for inactives: at the top dose reporter change, positive = more light; 340,000 tested, under 10 active; AID 2288; active = well fitted rising curve with a large enough effect; inconclusive = small, poorly fitted or top-dose-only effect; inactive = no such curve, though single readings can be large or run the other way;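 also: % of control where 0% means no effect; miR-21 action dims this reporter so a rising signal means less miR-21 action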
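Using DMEM plus 10% FBS, HeLa miR-21-FLuc cells are incubated with test compounds (final up to about 40uM) for 48 hours; firefly luciferase signal is then imaged following reagent-mediated lysis.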
Rango complex inh = inhibitors of Rango-importin beta complex formation | Q14974 | Rango CFP/YFP FRET sensor + importin beta, 45 min | Potency, µM (series often up to 92.2 µM), inactives show at the top dose inhibition of complex formation | 340,000 compounds, 0.031% hits | AID 540263; active = rising FRET ratio curve, often small or poorly fitted; inconclusive = mostly compound fluorescence or quenching in the first reads; inactive = flat curves in all reads;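 also: potency is read from the fitted curve at half-maximal effect; 0% = DMSO wells and 100% = buffer wells lacking importin beta; nearly all actives have a fitted effect of over 15% in size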
Target sequence (Q14974 whole entry, looked up): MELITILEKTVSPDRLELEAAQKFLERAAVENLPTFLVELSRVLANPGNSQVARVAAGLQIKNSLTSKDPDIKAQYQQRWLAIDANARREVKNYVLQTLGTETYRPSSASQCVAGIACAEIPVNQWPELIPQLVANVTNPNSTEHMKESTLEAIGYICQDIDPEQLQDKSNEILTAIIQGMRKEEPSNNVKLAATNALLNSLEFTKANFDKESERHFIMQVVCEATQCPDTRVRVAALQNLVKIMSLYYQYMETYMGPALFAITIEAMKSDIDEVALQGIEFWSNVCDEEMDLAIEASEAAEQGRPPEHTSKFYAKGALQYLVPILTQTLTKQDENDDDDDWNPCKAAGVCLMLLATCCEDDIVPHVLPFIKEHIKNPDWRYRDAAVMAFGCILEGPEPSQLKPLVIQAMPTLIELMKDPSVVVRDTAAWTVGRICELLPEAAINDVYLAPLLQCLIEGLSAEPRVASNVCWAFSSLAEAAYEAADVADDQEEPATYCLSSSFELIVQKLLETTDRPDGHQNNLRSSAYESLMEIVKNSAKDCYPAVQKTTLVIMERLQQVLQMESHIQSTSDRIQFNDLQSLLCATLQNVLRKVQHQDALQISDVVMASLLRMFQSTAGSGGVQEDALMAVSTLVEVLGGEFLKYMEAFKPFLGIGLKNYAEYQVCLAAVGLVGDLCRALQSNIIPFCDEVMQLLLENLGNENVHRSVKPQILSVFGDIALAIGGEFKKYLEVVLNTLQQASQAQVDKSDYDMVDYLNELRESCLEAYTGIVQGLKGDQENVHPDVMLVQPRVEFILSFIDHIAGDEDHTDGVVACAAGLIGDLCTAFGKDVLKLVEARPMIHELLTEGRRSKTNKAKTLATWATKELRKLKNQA
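Inhibition scored from the CFP 486 nm/YFP 530 nm FRET ratio 45 min after adding 0.125 microM importin beta to 50 nM Rango biosensor preincubated 5 min with compound (room temperature, PBS with DTT, Tween-20, BSA). No-importin wells as positive control.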
Rango dissoc inh = inhibitors of RanGTP-induced Rango-importin beta complex dissociation; Potency, µM (highest dose often 46.1 µM), without a hit: at the highest dose activity change, negative = inhibition; AID 540253; O95149+P62826; 340,000 compounds, 0.071% hits; Biochemical FRET Rango-importin beta, RanGTP-induced dissociation; active means falling FRET ratio curve, often poorly fitted, with flat reads before Ran was added; inconclusive means other falling curves, or compound fluorescence or quenching; inactive means flat or rising ratio curve;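 also: potency is read from the fitted curve at half-maximal effect; % of control where 0% means no effect; nearly all actives have a fitted effect of over 45% in size; -100% = wells without RanGTP and RCC1; the record marks most hits as doubtful in a second field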
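FRET read at 45 min, room temperature: inhibitors block the CFP/YFP signal rise when RanGTP (0.6 uM Ran, 2 mM GTP, 0.2 uM RCC1) frees Rango (0.1 uM) from importin beta (0.25 uM). Pre-read after 5 min compound exposure flags interference.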
An asterisk follows results filed as active; ? = inconclusive; . = not tested or not shown; & = joins results of further samples. Not all compounds are listed (hit frequency here may not be typical).

GLA inh pH 4.5	miR-21 FLuc	Rango complex inh	Rango dissoc inh	smiles
4	-5%	4.7%	11%	CCOC(=O)C1=C(CC)Nc2ccccc2N=C1NC(=O)c1cc(S(=O)(=O)N(C)C)ccc1Cl
0	?	4.9%	-17%	NC(N)=N/N=C/c1ccc(Cl)c(Cl)c1
.	-2%	-0.3%	-19%	CCOC(=O)C1CCN(C(=O)CCc2nnc3ccc(NCc4ccco4)nn23)CC1
3	30%	0.0%	-4%	CCN1CCCc2cc(CN(CCN3CCOCC3)C(=S)Nc3ccccc3C)ccc21
2	0%	-1.9%	16%	CC(Sc1ccc(Cl)cc1)C(=O)NCC1CCCO1 (configuration not stated)
-3	-7%	-5.7%	3%	CC(C)[C@H](NC(=O)Cc1ccccc1)C(=O)OCc1cc(=O)n2c(n1)sc1ccccc12
.	1%	-2.7%	11%	Cc1cc(NC(=O)CSc2nnnn2-c2ccccc2F)no1
1	-12%	.	.	CC(C)OC(=O)c1c(NC(=O)c2cnn3c2NC(c2ccccc2)CC3C(F)F)sc2c1CCCC2 (configuration not stated)
.	5%	3.9%	-13%	Cc1c(C(=O)N/N=C/c2cccnc2)sc(N)c1C#N
.	-26%	-0.1%	-15%	O=C(Nc1nnc(S(=O)(=O)N2CCOCC2)s1)c1ccccc1
.	-2%	-1.1%	-9%	CCc1ccc(CN(C)C(=O)C2CCC(=O)N(CC3CCCCC3)C2)cc1 (configuration not stated)
-24	-2%	12%	29%	CC(C)(C)c1ccc(S(=O)(=O)Nc2ccc(Cc3ccncc3)cc2)cc1
.	-32%	-2.2%	-11%	Fc1ccc(-c2cn3ccccc3n2)cc1
.	.	0.2%	-10%	O=C(OCCOc1ccccc1)c1cc(S(=O)(=O)N2CCOCC2)ccc1Cl
-7	-2%	3.8%	1%	CCOC(=O)CN(C)C(=O)CCc1nnc(-c2ccsc2)o1
7	-8%	-0.1%	-7%	Cc1cc(C(=O)NC2CCCc3ccccc32)c(C)o1 (configuration not stated)
.	.	-2.0%	-2%	CC(=NNC(=O)CSCC(=O)NN=C(C)c1ccccc1)c1ccccc1
5	-1%	-3.7%	1%	Cc1cc(NC(=O)COC(=O)c2ccc(F)c(S(=O)(=O)N3CCOCC3)c2)no1
-1	6%	2.1%	-11%	CC(C)Cn1c(N)c(C(=O)COC(=O)c2cccc(F)c2)c(=O)n(C)c1=O
-1	-8%	-6.7%	3%	OC(COc1ccccc1)CN1C2=NCCCN2c2ccccc21 (configuration not stated)
.	.	-9.5%	-7%	CN(C(=O)c1ccc(NC(=O)Cc2ccc(NC(=O)C3CCCN(C(=O)CCc4ccccc4)C3)cc2)cc1)C1CC1 (configuration not stated)
.	.	-0.2%	-13%	CCc1nc2ccccc2c(C(=O)OCC(=O)NC2CCCC2)c1C
-13	8%	-0.2%	-2%	CN(CC(=O)Nc1ccc(S(=O)(=O)N2CCCC2)cc1)Cc1ccc(Cl)c(Cl)c1
.	-4%	0.9%	-1%	Cc1cccc(NC(=O)C2CCN(C(=O)c3ccco3)CC2)c1C
-7	-7%	0.4%	8%	O=C(NN1CCN(Cc2ccccc2)CC1)c1ccc(N2CCOCC2)c([N+](=O)[O-])c1
-18	6%	3.0%	1%	COc1ccccc1-c1c(-c2ccc(OCC(=O)NN)cc2O)n[nH]c1C(F)(F)F
-1	18%	1.7%	-7%	O=C(NCc1cccs1)C(=O)NCC(c1ccco1)N1CCN(c2ccc(F)cc2)CC1 (configuration not stated)
1	-29%	0.6%	-7%	Cc1c(Nc2nc(-c3ccccc3)cs2)c(=O)n(-c2ccccc2)n1C
5	-36%	1.6%	2%	CC(=O)Nc1cc(C(=O)OCC(=O)c2ccccc2)ccc1C
9	-3%	-4.1%	-7%	COc1cc(OC)c(S(=O)(=O)Nc2ccc(C(=O)N3CCCC3)cc2)cc1NC(C)=O
.	-2%	2.0%	0%	NC(=O)c1cc2ccccc2o/c1=N/NC(=O)c1cccc(F)c1
.	.	2.7%	14%	CSc1nc(N)nc2c1ncn2CC(=O)NCc1ccc2[nH]ccc2c1
17	-3%	-0.6%	-3%	COCCCNC(=S)Nc1ccc(CC(=O)O)cc1
-4	27%	-0.4%	-8%	Nc1ccc(OC(=O)Nc2ccc(O)cc2)cc1
1	-3%&-21%	-0.7%	1%	CCOC(=O)C1CCN(CCC(=O)Nc2ccccc2Cl)CC1
3	28%	1.0%	0%	O=C1N(Cc2cccc(Cl)c2)C[C@@H]2C[C@@H](c3ccc4nonc4c3)N3CCC[C@@]123
.	-3%	-0.4%	18%	COc1ccc(C(=O)OCCCOC(=O)c2ccc(OC)cc2OC)c(OC)c1
3	16%	1.2%	4%	Cc1ccc(S(=O)(=O)Cc2ccccc2Cl)cc1
-4	1%	-5.2%	-7%	O=C(O)c1cccnc1Cl
-3	-3%	2.4%	-12%	CCc1cccc(C)c1NC(=S)N(CCN(C)C)C(C)c1ccco1 (configuration not stated)
.	-54%	4.5%	17%	Cc1c(C)c2ccc(OCC(=O)Nc3ccccn3)cc2oc1=O
.	.	-0.4%	-11%	O=C(CSc1nc2ccccc2c(=O)n1Cc1ccc(F)cc1)NCC1CCCO1 (configuration not stated)
0&4	-12%	5.3%	0%	O=C(NCc1ccccc1)c1cccc(Br)n1
-4	-31%	-3.9%	?	CCO[C@@H]1OC(C(=O)NCc2ccccc2)=C[C@H](c2coc3ccccc3c2=O)[C@H]1CCCO
0	-2%	-2.4%	3%	CCOC(=O)c1[nH]c2ccccc2c1NC(=O)c1ccc(S(=O)(=O)N2CCOCC2)cc1
.	.	0.0%	-18%	N#Cc1ccc(C(=O)OCCc2cc3ccccc3c(=O)o2)cc1
.	11%	-3.9%	-14%	Cc1ccc(C(=O)CC(=O)c2ccccc2C)c(O)c1
.	.	?	-1%	Cc1ccc(C(=O)N2CC=C(c3ccccc3)CC2)s1
.	5%	-0.1%	3%	COCCCNC(=O)Cc1c(C)c2c(cc(C)c3c(C)c(C)oc32)oc1=O
.	.	-3.7%	-17%	NC(=O)c1ccsc1NC(=O)COC(=O)c1cccnc1Cl

Additional compounds follow.
GLA inh pH 4.5	miR-21 FLuc	Rango complex inh	Rango dissoc inh	smiles
.	-9%	2.1%	2%	Clc1cc(Br)ccc1OCCOCCN1CCCC1
.	-4%	1.9%	2%	N#CC1(NC(=O)COC(=O)C23CC4CC(CC(O)(C4)C2)C3)CCCCC1
.	.	0.1%	6%	COc1ccc(CCNC(=O)CSc2nnc3ccc(-c4ccccn4)nn23)cc1OC
-17	-3%	?	-23%	Fc1ccc(-c2nc3c(-c4ccc(Cl)cc4)cnn3cc2CCN2CCOCC2)cc1
4	0%	-1.2%	-16%	O=C(/C=C/c1ccc(Cl)cc1Cl)c1nc2ccccc2[nH]1
8	25%	-1.7%	-1%	Cc1ccc(S(=O)(=O)N2CCCOC2CNC(=O)C(=O)NCCc2c[nH]c3ccccc23)cc1 (configuration not stated)
.	0%	3.1%	-6%	CCOc1ccc(N(CC(=O)NC2CC2)S(=O)(=O)c2ccc(C)cc2)cc1
-9	-3%	?	1%	CC(C)c1ccc(/C=C/C(=O)NCCCc2ccccc2)cc1
.	-1%	-3.5%	-1%	Cc1cccc(-n2c(CNC(=O)c3ccc(S(=O)(=O)N4CCCCC4)cc3)n[nH]c2=S)c1
0	-2%	0.4%	-1%	Cc1ccc2c(O)c(C)c(=O)[nH]c2n1
-5	-30%	-0.2%	-19%	CC(=O)Nc1ccc(C(=O)OCc2ccccc2Br)cc1
12	-5%	-0.5%	14%	CC(C)c1ccc(N(CC(=O)O)S(=O)(=O)c2cccnc2)cc1
-1	-1%	0.9%	-3%	O=C1CC(Cc2ccc(Cl)cc2)C(=O)N1c1cc(Cl)ccn1 (configuration not stated)
2	-8%	-0.1%	0%	O=C1CCC(=O)N1CCc1c[nH]c2ccccc12
-8&-10	-41%&-56%	3.8%	3%	O=C(Nc1ccccc1)Nc1ccccn1
.	.	2.8%	23%	COc1ccc(CNC(=O)COC(=O)CC(NC(N)=O)c2ccc(Cl)cc2)cc1OC (configuration not stated)
.	-4%	-0.7%	41%	Cc1cc(C)cc(C(=O)NC(CC(N)=O)c2ccc(NC3CCCC3)c([N+](=O)[O-])c2)c1 (configuration not stated)
10	0%	-0.1%	-4%	COCCN(C(=O)CNC(=O)c1cccs1)C(C(=O)NC(C)(C)C)c1ccccc1 (configuration not stated)
8	0%	-0.3%	1%	COc1ccc2cc(S(=O)(=O)n3cnc(C)c3)ccc2c1
2	-17%	-3.6%	-8%	CN(C)c1ccc(-c2noc(C3CCN(C(=O)Nc4ccc(Cl)cc4)CC3)n2)cc1
-3	-8%	-1.6%	-15%	COc1cccc(NC(=O)C(OC(=O)c2ccccc2NS(=O)(=O)c2cccs2)c2ccccc2)c1 (configuration not stated)
.	-1%	6.8%	21%	CCOc1cccc(CNCCCSc2ncccn2)c1
-3	6%	-0.8%	1%	CC1CN(c2ccc(NC(=S)Nc3ccc(N4CC(C)OC(C)C4)cc3)cc2)CC(C)O1 (configuration not stated)
1	22%	?	-30%	CSc1ccc(C2C(C#N)=C(N)Oc3cc4c(cc32)OCO4)cc1 (configuration not stated)
.	.	4.6%	-11%	O=C(COC(=O)c1ccc([N+](=O)[O-])cc1)NCCC1=CCCCC1

5 entries from above, with values under each structure:
Every second line gives: GLA inh pH 4.5 | miR-21 FLuc | Rango complex inh | Rango dissoc inh
- COc1cccc(NC(=O)C(OC(=O)c2ccccc2NS(=O)(=O)c2cccs2)c2ccccc2)c1 (configuration not stated)
    -3 | -8% | -1.6% | -15%
- CCOc1cccc(CNCCCSc2ncccn2)c1
    . | -1% | 6.8% | 21%
- CC1CN(c2ccc(NC(=S)Nc3ccc(N4CC(C)OC(C)C4)cc3)cc2)CC(C)O1 (configuration not stated)
    -3 | 6% | -0.8% | 1%
- CSc1ccc(C2C(C#N)=C(N)Oc3cc4c(cc32)OCO4)cc1 (configuration not stated)
    1 | 22% | ? | -30%
- O=C(COC(=O)c1ccc([N+](=O)[O-])cc1)NCCC1=CCCCC1
    . | . | 4.6% | -11%

More entries follow:
GLA inh pH 4.5	miR-21 FLuc	Rango complex inh	Rango dissoc inh	smiles
.	.	-1.4%	-10%	C[C@]12c3[nH]c4ccc(Cl)cc4c3CCN1C(=O)[C@@H](CC(=O)NCCc1ccccn1)C[C@@H]2C(=O)N1CCOCC1
-7	-54%	0.7%	-7%	Cc1ccc(-n2nnc3ccccc3c2=O)cc1C
3	3%	3.8%	3%	COC(=O)c1ccc(NC(=O)CN(c2ccc(C)cc2)S(=O)(=O)c2c(C)nn(C)c2C)cc1
-22	-30%	?	?	Nc1ccc2nc3c(=O)[nH]c(=S)[nH]c3nc2c1
5	-3%	12%	-11%	O=C(CN1C(=O)/C(=C\C=C\c2ccccc2)SC1=S)Nc1ccc(F)cc1
0	-20%	-1.2%	0%	Cc1ccccc1C(=O)NNC(=O)CCC(=O)Nc1cccc(Cl)c1C
.	3%	-4.2%	0%	COCC1CCCN(C(=O)c2ccc3oc(Cc4ccc(Cl)cc4)nc3c2)C1 (configuration not stated)
.	.	0.1%	-16%	CC(=O)c1cccc(NC(=O)CSc2nc(=O)n(CCN3CCOCC3)c3c2CCC3)c1
-15	0%	0.2%	2%	O=C(CCc1nnc(Cc2ccc(-c3ccccc3)cc2)o1)NCCc1cccnc1
6	22%	-0.1%	13%	N=c1c2c(-c3ccccc3)c(-c3ccccc3)n(Cc3ccccc3)c2ncn1CCCO
0	-2%	6.1%	4%	COC(=O)C1=NN(C(=O)c2ccccc2)C(C)(O)C1 (configuration not stated)
-2	-81%	-1.4%	-15%	Cc1cc(/C=C\c2ccccc2)nc2ccccc12
-7	-8%	-1.5%	1%	C=CCn1c(C2CC(=O)N(c3ccc(C)cc3)C2)nc2ccccc21 (configuration not stated)
15	-4%	-1.6%	-2%	O=C(NCCCN1CCCCC1)C1CCC(=O)N1CCc1ccccc1 (configuration not stated)

Fetched one by one from the entries so far:
GLA inh pH 4.5	miR-21 FLuc	Rango complex inh	Rango dissoc inh	smiles
15	-4%	-1.6%	-2%	O=C(NCCCN1CCCCC1)C1CCC(=O)N1CCc1ccccc1 (configuration not stated)
.	3%	-4.2%	0%	COCC1CCCN(C(=O)c2ccc3oc(Cc4ccc(Cl)cc4)nc3c2)C1 (configuration not stated)

Screening data (PubChem BioAssay)
